# Autofluor counter – compound fluorescence in toxin protease inhibitor counterscreen | compound autofluorescence counterscreen, microsphere flow cytometry; active compounds read high | fluorescence intensity (concentration not given with the values) | hit rate 3.1% among 360,000;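 active = at least 3 SD above the mean of all compounds, about 16000 in these data; inconclusive = too few beads counted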;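 note: 100 nL of 1 mM stock went into each well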
# PrP UTR inh – suppresses PrP 5' UTR mRNA reporter expression; AID 488862; cell-based PrP 5' UTR mRNA reporter, plate reader; hit rate 0.35% among 340,000; inhibition, % (test concentration not listed);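 active = every replicate at 50% or more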;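 note: 0 = median of the neutral control wells; tested in H4 reporter cells; numbers are from one replicate; inactives centre near -14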
# Sa ugtP lethal – kills S. aureus RN4220 lacking UgtP | S. aureus RN4220 ugtP deletion, OD600 growth, 16 h; some inactives read as strong as hits | hit rate 0.54% among 330,000 | growth inhibition, % (test concentration not listed) | AID 1259309;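 active = z-score under -3 and OD600 up to 0.15 on both plates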;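 note: plate controls were untreated wells for no effect and antibiotic for full effect; wells of about 80 µL received 100 nL stock; the first replicate is given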
# Sa RN4220 lethal – S. aureus RN4220 growth inhibition; OD600, 16 h; AID 1259311; hit rate 0.33% among 330,000; inhibition, % (test concentration not listed);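 active = z-score of -3 or lower and OD600 up to 0.18 on both plates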;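 note: plate controls were untreated cells for no effect and reference antibiotic for full effect; stock transfer was 100 nL into about 80 µL; one replicate is shown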
# BJeLR lethal – BJeLR cell viability loss | inhibition, % (no concentration beside the values) | hit rate 0.17% among 300,000 | BJeLR (HRASV12) viability, CellTiter-Glo ATP luminescence, 48 h; reference of the scale not given here | AID 1554;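 active = replicate mean above 50%; inconclusive = above 50% but judged a plate artefact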;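 note: 50 nL library stock added to about 25 µL; numbers are from one replicate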
# Mtb hypoxia inh – inhibitors of hypoxia-regulated fluorescent reporter in Mycobacterium tuberculosis; M. tuberculosis hypoxia-regulated fluorescent reporter, fluorescence; fluorescence inhibition, % (no concentration beside the values); hit rate 0.1% among 300,000; AID 1159583;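 active = 35 to 45% if threefold the growth effect, above 45% if 1.5-fold the growth effect; inactive = the rest, general growth blockers included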;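 note: wells of about 50 µL received 100 nL stock; 0% = vehicle wells and 100% = reference inhibitor wells; whole bacteria with a GFP reporter of the hypoxia response; strong numbers were not always called active; many hits fall short of the cut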
# Mtb hypoxia inh growth – second read-out of Mtb hypoxia inh, no call of its own (marks repeat the call); growth inhibition, %; measured here: M. tuberculosis growth (absorbance);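 0% = vehicle and 100% = reference antibiotic; read after six days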
# The depositor's hits bear a star; ? = inconclusive; . = no result given; & = joins results of further samples. This is a random part of the collection; 4% or so of the library scored in one or more.
compound	Autofluor counter	PrP UTR inh	Sa ugtP lethal	Sa RN4220 lethal	BJeLR lethal	Mtb hypoxia inh	Mtb hypoxia inh growth
Cc1cc(NS(=O)(=O)c2ccc(NC(=O)Cc3ccc([N+](=O)[O-])cc3)cc2)no1	?	-6	-2	0.6	-10	-5	-6
C[C@H](CO)N1C[C@H](C)[C@@H](CN(C)Cc2ccc3c(c2)OCO3)Oc2ccc(NS(C)(=O)=O)cc2C1=O	4504	-21	-6	-18	.	12	13
CCn1nc(C)cc1C(=O)n1nc(C)c(Sc2ncccn2)c1C	4031	-31	8	3.5	-9	2	7
CN(c1ccccc1)S(=O)(=O)c1cccc(NC(=O)CCNC(=O)c2ccccc2)c1	8328	-11	4	8.1	.	6	-3
CCCN(CC1CCCO1)C(=O)c1cc(COc2ccc(F)cc2F)on1 (configuration not stated)	?	1	-2	-1.4	1	0	13
O=C(CSc1nnc(COc2ccccc2)n1Cc1ccco1)NCc1ccco1	8967	-2	7	1.2	7	7	5
COc1ccc(-c2sc3ccc(OC)cc3c2-c2ccc(OC)nc2)cc1	2871	-17	6	-8.7	.	6	7
COc1ccc(/C(N)=N/OC(=O)c2cc(-c3ccccc3)nc3ccccc23)cc1	19686*	-31	-1	-4.1	-13	2	-2
CCC(=O)c1ccc(OCC(=O)N2CCN(C(=O)c3ccccc3)CC2)cc1	3518	-20	-2	1.7	.	8	3
Cc1ccc(NC2=C(C(=O)c3ccccc3)N(C)S(=O)(=O)c3ccccc32)cc1	3304	-19	30	-3.3	10	.	.
CCN1CCN(CCOc2ccccc2-c2ccccc2)CC1	3217	-16	5	2.2	3	3	15
Cc1cc(C(F)(F)F)nc(SCCN2CCOCC2)c1C#N	4694	14	-5	2.3	-5	1	2
CN1CCCC(OC(=O)c2ccccc2Br)C1 (configuration not stated)	3307	-12	7	5.0	-1	-5	-2
CCN(CC(=O)Nc1cc(S(=O)(=O)N2CCCCC2)ccc1Cl)Cc1ccccc1	.	-12	-21	-2.6	9	9	3
Cc1cccc(OCCSc2ncnc3nc[nH]c23)c1	3282	-34	-1	3.8	-4	7	-3
CCCNCCC(c1ccco1)c1ccccc1OC (configuration not stated)	16663*	-16	10	5.3	6	13	7
CC(C)CNC(=O)c1ccccc1NC(=O)CCSc1ccccc1	2587	-28	-9	-3.5	2	3	1
COC(=O)C1=C(N)Oc2cc(C)[nH]c(=O)c2C1c1ccccc1OC (configuration not stated)	5254	-9	-5	1.3	-2	-12	-5
Cc1cc(C)cc(NC(=O)C2CCN(c3cnccn3)CC2)c1	4649	-14	-4	2.2	1	-1	-5
C=CCNC(=O)CN1CCN(C(c2ccccc2)c2ccccc2)CC1	3130	-11	4	4.0	1	22	-1
CS(=O)(=O)N(CC(=O)Nc1ccccc1F)C1CCCCC1	4258	-28	7	1.7	4	17	12
COc1ccc(CN2CCNC(=O)C2CC(=O)NCCCC2CCCC2)c(C)c1C (configuration not stated)	5713	-11	1	4.5	1	-5	-11
CC(=O)N(C)c1ccc(NC(=O)c2ccccc2C(=O)O)cc1	21123*	-18	2	2.8	4	-3	6
CCNC(=S)NNC(=O)c1cc(C)nc2ccccc12	10623	8	13	4.7	-5	-1	5
CC(C)[C@H](NC(=O)c1ccccc1F)C(=O)OCCN1C(=O)c2ccccc2C1=O	3125	-8	12	7.5	.	7	4
CCn1c(=O)c([N+](=O)[O-])c(NCCc2ccc(OC)c(OC)c2)c2ccccc21	2558	-29	7	0.7	-3	12	4
COc1ccccc1C=NNC(=O)c1ccc(=O)n(C)c1	.	.	0	2.2	.	-10	9
CC1CC(C)CN(CCCNC(=O)Cn2ncn3cccc3c2=O)C1 (configuration not stated)	9523	-7	8	5.2	-3	10	5
COc1cc2sc3ccc(-c4ccc(CN5CCOCC5)cc4)cc3c(=O)c2cc1OC	4211	-42	-25	2.5	.	.	.
Cc1ccc(C(=O)NCC(c2ccco2)N2CCc3ccccc32)cc1 (configuration not stated)	5049	-21	16	-1.9	3	10	7
CC1CC(C)CN(c2ncc3c(n2)CC(c2ccc(Cl)cc2)CC3=O)C1 (configuration not stated)	8249	-3	3	-5.6	-5	-1	1
CCN(C(=O)CSc1nnc(-c2cccs2)n1N)c1c(N)n(Cc2ccccc2)c(=O)[nH]c1=O	4132	-3	15	6.5	12	2	-2
CC(C)Cc1nnc(NC(=O)c2cccc(S(=O)(=O)N3CCOCC3)c2)s1	8810	-9	5	7.1	.	0	0
CN1CCN(NC(=O)c2ccc(Cl)s2)CC1	3288	-5	1	2.7	1	2	1
Cc1ccc(-n2c(SCC(=O)Nc3ccc(C(=O)O)cc3)nnc2-c2ccncc2)cc1	4746	13	12	2.7	-7	16	7
NC1=NC(=O)/C(=C/c2ccc(Cl)cc2Cl)S1	3524	.	1	6.1	12	.	.
O=C(COc1cccc(Cl)c1)Nc1ccc2c(c1)CCC2	2304	-21	-5	11	-3	-5	6
COC(=O)c1ccccc1NC(NC(=O)c1ccco1)C(=O)c1ccccc1 (configuration not stated)	11234	-17	-9	2.7	-1	4	-2
O=C(Nc1ccc2c(c1)OCO2)c1ccc(Br)s1	10134	-157	-6	9.7	6	14	9
CCc1noc(C)c1C(=O)OCC(=O)NC(C)c1ccccc1 (configuration not stated)	.	.	7	3.7	.	15	4
CC(=O)N1CCCc2cc(S(=O)(=O)Nc3ccccc3C)ccc21	5898	4	0	7.6	10	0	-3
COc1ccccc1CNc1ncccn1	3810	-31	9	2.6	4	12	5
COc1ccc(C2(NC(C)=O)CCN(C(=O)CCC(=O)O)CC2)cc1	4080	-14	1	2.2	-9	17	3
COc1ccc(N(C(C)=O)S(=O)(=O)c2cc(OC)ccc2OC)cc1	3087	-10	2	-10	-3	19	11
Cc1nn(Cc2cccc(C(=O)NC34CC5CC(CC(C5)C3)C4)c2)c(C)c1Br	3150	12	-16	-3.5	5	3	7
CCCCC1CC1C(NC(=O)c1cccs1)c1ccc(Cl)cc1 (configuration not stated)	.	.	-6	5.2	.	-6	9
Cn1c(=O)c2c(nc(Sc3ncccn3)n2Cc2ccc(Cl)cc2)n(C)c1=O	4594	3	-2	-6.5	-3	1	-1
CC[n+]1c(/C=C/C=C/N(C(C)=O)c2ccccc2)sc2cc(OC)ccc21	.	.	-16	-5.5	.	-49	2
COc1ccc(NC(=S)N2CCN(C(c3ccccc3)c3ccccc3)CC2)cc1OC	2362	0	7	-7.8	-10	4	-3
O=C(CO/N=C\c1ccccc1)Nc1ccccc1C(=O)N1CCOCC1	2177	-4	.	.	15	.	.
Cc1cccc(NC2=NC(=S)N(c3cccc(C(=O)O)c3)C23CCCCC3)c1	2675	-7	5	4.5	-1	3	11
Cc1ccc(NC2=C(N3CCOCC3)C(=O)c3ccccc3C2=O)cc1	9480	12	16	13	11	4	8
COc1cc(=O)n(C)c2c(OCC(O)C(C)(C)O)cccc12 (configuration not stated)	5684	-11	-4	7.5	.	4	-1
CC(C)(C)OC(=O)CC1CC=CCC(CC(=O)NC(CO)Cc2ccccc2)C(=O)NCCOC1=O (configuration not stated)	.	.	3&-1	7.6&4.8	.	5&-6	6&2
O=S(=O)(Nc1ccc(F)cc1)N1CCCCCC1	3625	-5	-11	4.2	3	.	.
CC(=O)Nc1ccc(S(=O)(=O)NCCNc2ccccc2[N+](=O)[O-])cc1	3298	-87	-15	-0.1	4	-4	11
COc1cc2cc(C)nc(Cc3cccc4ccccc34)c2cc1OC	4401	12	10	2.2	-11	10	6
Cc1ccc(NC(=S)NCCN(C2CCCCC2)C2CCCC2)cc1C	4924	-12	11	6.8	-9	-27	3
CCOc1ccc2c(=O)c(Oc3ccccc3OCC)coc2c1	3442	-24	8	-0.3	4	.	.
NS(=O)(=O)c1ccc(N/N=C/c2cn(-c3ccccc3)nc2-c2cccs2)cc1	2331	-13	.	.	6	.	.

# Record cards, from the list above. Order of values: Autofluor counter, PrP UTR inh, Sa ugtP lethal, Sa RN4220 lethal, BJeLR lethal, Mtb hypoxia inh, Mtb hypoxia inh growth
# `CC(C)(C)OC(=O)CC1CC=CCC(CC(=O)NC(CO)Cc2ccccc2)C(=O)NCCOC1=O` (configuration not stated) across the screens: ., ., 3&-1, 7.6&4.8, ., 5&-6, 6&2
# `Cn1c(=O)c2c(nc(Sc3ncccn3)n2Cc2ccc(Cl)cc2)n(C)c1=O` across the screens: 4594, 3, -2, -6.5, -3, 1, -1
# `O=C(CO/N=C\c1ccccc1)Nc1ccccc1C(=O)N1CCOCC1` across the screens: 2177, -4, ., ., 15, ., .

# Other structures.
compound	Autofluor counter	PrP UTR inh	Sa ugtP lethal	Sa RN4220 lethal	BJeLR lethal	Mtb hypoxia inh	Mtb hypoxia inh growth
COc1ccccc1NC(=O)CCN1C(=O)C2CC=C(Cl)CC2C1=O (configuration not stated)	10561	4	-3	3.3	10	17	2
O=C1CN(S(=O)(=O)c2cc(Cl)ccc2Cl)c2ccccc2N1	3693	-9	4	4.3	4	5	3
COC(=O)NN=Cc1ccc([N+](=O)[O-])s1	.	.	14	20	.	9	4
O=C(O)c1ccc(N=C2SCC(=O)N2Cc2ccccc2)cc1	4288	-22	1	-1.2	-4	-6	5
Cc1noc(C)c1COc1ccc(C(=O)NCc2cccs2)cc1	2857	-11	14	-3.7	.	12	11
CC1CCCC(NC(=O)COC(=O)CSc2ccc3ccccc3c2)C1C (configuration not stated)	2151	-9	-14	2.2	2	-9	-3
O=C1C2CC=CCC2C(=O)N1CNc1ccccc1 (configuration not stated)	4158	-18	2	5.7	2	3	9
CN(Cc1nc(-c2cccs2)no1)CC1(N2CCOCC2)CCCCC1	4424	-10	7	4.0	-5	-5	1
O=C(CCc1nc2ccccc2c(=O)[nH]1)OCc1ccc(-c2ccccc2)cc1	2485	4	5	11	-6	-13	-1
CCN(CC)CCN1C(=O)C(=O)/C(=C(/O)c2ccc(OC)cc2)C1c1ccco1 (configuration not stated)	3057	-36	-2	0.9	6	-1	-5
CCOC(=O)c1c(C)n(-c2ccc(F)cc2)c2ccc(O)cc12	4131	-8	-7	6.8	9	8	8
O=C(O)CC1=C(O)C(=O)N(c2ccccc2)C1c1ccccc1 (configuration not stated)	.	-7	2	11	-5	-2	15
CCOc1ccc(OCC)c(NC(=O)CN(C)S(=O)(=O)c2cccc3nsnc23)c1	4375	-10	-2	5.8	-7	0	5
COC(=O)CC1=C(C)C(=O)CC2C(C)(C)CCCC12C (configuration not stated)	8320	-25	9	4.6	-1	5	-2
Cc1ccc(Nc2nc(CSc3nnc(-c4ccccc4)n3C)cs2)cc1	2873	-25	2	3.9	-4	9	5
Cn1c(=O)n(CCOc2ccc([N+](=O)[O-])cc2)c2ccccc21	3023	-26	-2	-3.3	0	-7	8
COc1ccccc1C(=O)NC(CCSC)C(=O)OCC(=O)c1ccc[nH]1 (configuration not stated)	9428	-19	1	9.4	-6	3	2
CCOC(=O)CN1C(=O)NC(CCc2ccccc2)C(C(=O)OC)C1C (configuration not stated)	.	.	2&3	6.3&4.8	.	4&7	3&1
CC(=O)N1CCN(c2nc(-c3ccco3)c3c(c2C#N)CC(C)(C)SC3)CC1	4248	-12	-7	-2.3	-9	.	.
COc1ccccc1N(C(=O)c1snc(C(N)=O)c1N)C(C(=O)NC1CCCC1)c1ccc2ncccc2c1 (configuration not stated)	5722	-14	7	2.7	-12	2	1
Cc1sc2ncnc(N[C@@H](Cc3c[nH]c4ccccc34)C(=O)O)c2c1C	2682	-20	.	.	0	.	.
COC(=O)c1ccc(N=Nc2ccccc2)cc1	4044	-47	11	-6.1	10	-1	-7
COC(=O)C1=C(C)N(CCc2cc(OC)c(OC)c(OC)c2)C(=O)NC1c1ccc(Br)cc1 (configuration not stated)	.	.	3	7.7	.	0	0
COc1ccccc1-c1nc(=S)c(C(C)=O)c(C)[nH]1	4536	.	10	3.6	4	5	3
CCOC(=O)N1CCN(C(=O)Cc2ccccc2[N+](=O)[O-])CC1	.	-30	7	1.5	0	1	5
CC(O)C(=O)N/N=C/c1cccc2ccccc12 (configuration not stated)	2147	-24	.	.	-2	.	.
